Assay outcomes: PubChem, National Center for Advancing Translational Sciences (NCATS)
Menin MLL FP FL: displaces fluorescein MLL peptide from human menin. Fluorescence polarization, fluorescein-MLL peptide displacement from menin. FP activity change, % at 61.4 µM. 290,000 tested, under 10 active; inconclusive = falling polarisation curve, or a change in total fluorescence; inactive = total fluorescence flat and polarisation flat or rising; no compound was filed as active; the % refers to the polarisation; negative = inhibition;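 also: % of control where 0% means no effect; inhibitors lower the polarisation; unlabelled MLL peptide was the positive control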
TRPML1 blocker: human mucolipin-1 channel inhibition; Q9GZU1; activity change, negative = inhibition, % (test concentration not listed); 390,000 compounds, 0.02% hits; AID 624415; TRPML1-inducible cells, Ca2+ dye fluorescence, FDSS; stronger effect = lower value; inhibition of EC80 agonist-evoked calcium signal; in the data active means activity change below about -50%; inconclusive means about -30% to -50%; inactive means above about -30%;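 also: stimulus is agonist 54-4 at its EC80 concentration; % is scaled to controls: 0 for no effect and ±100 for the full control effect; compound concentration not given in the record; the text of the record puts the active cut at -80%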
Target sequence (Q9GZU1 whole entry, looked up): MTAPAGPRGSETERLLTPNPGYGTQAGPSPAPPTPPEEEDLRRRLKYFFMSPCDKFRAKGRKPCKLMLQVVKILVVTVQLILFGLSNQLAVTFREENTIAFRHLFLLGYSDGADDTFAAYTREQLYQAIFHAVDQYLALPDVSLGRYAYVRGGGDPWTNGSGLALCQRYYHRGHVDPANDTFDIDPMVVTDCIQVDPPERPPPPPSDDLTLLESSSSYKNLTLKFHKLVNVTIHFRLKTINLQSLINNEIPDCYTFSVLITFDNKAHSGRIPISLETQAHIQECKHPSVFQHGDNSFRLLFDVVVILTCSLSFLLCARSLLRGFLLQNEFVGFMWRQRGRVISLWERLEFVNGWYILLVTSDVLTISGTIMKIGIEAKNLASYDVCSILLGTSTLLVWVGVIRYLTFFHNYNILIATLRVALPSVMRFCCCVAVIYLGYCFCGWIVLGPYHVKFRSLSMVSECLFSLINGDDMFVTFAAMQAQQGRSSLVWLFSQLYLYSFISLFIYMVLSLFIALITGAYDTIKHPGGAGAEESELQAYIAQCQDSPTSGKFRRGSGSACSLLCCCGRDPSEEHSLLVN
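TRPML1-DL cells, Tet-induced overnight (~16 h, 37 °C) at 1,500 cells/well, were loaded with Ca8 no-wash dye plus quencher for 45-90 min at room temperature. Compounds were pinned during FDSS kinetic reading; agonist 54-4 at EC80 (4 uM final) then added.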
gsp antag: antagonizes gsp, the McCune-Albright syndrome mutation; gsp-mutant cells, cAMP HTRF, 30 min; control for the full effect not named in the record; Potency, µM (highest dose often 76.9 µM), for inactives: at the highest dose activity change, negative = inhibition, usual class: inhibitors; 340,000 compounds, 0.4% hits; active = falling curve of any shape with a large fitted effect; inconclusive = falling curve, mostly with a smaller effect; inactive = flat or rising curve; cell line not stated here;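 also: intracellular cAMP measured with PDE inhibitor Ro 20-1724 present during compound exposure; potency is read from the fitted curve at half-maximal effect; % is scaled to controls: 0 for no effect and ±100 for the full control effect; nearly all actives have a fitted effect of over 65% in size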
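HTRF cAMP read-out (cAMP-d2 plus anti-cAMP antibody-K in lysis buffer, 30 min RT). Before lysis, cells are exposed to compounds with […] for 30 min at 37C in DPBS containing Ca/Mg, BSA and Tween 20.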
gsp ag: activates gsp, the McCune-Albright syndrome mutation; gsp mutant cells, cAMP HTRF, 30 min; control for the full effect not named in the record; Potency, µM (top dose mostly 76.9 µM), for inactives: at the highest dose activation (cAMP increase), usual class: activators; 340,000 compounds, 0.13% hits; AID 624287; active = well fitted activation curve with a large enough effect; inconclusive = small, poorly fitted or top-dose-only effect, or another doubt; inactive = no such curve, though single readings can be large or run the other way; cell line not stated here;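 also: phosphodiesterase inhibitor Ro 20-1724 added with compounds to block cAMP breakdown; potency is read from the fitted curve at half-maximal effect; nearly all actives have a fitted effect of over 60% in size; about a fifth of the inactives were tested at one dose only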
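Cells in DMEM/10% FBS with G418 were pretreated with compounds in DMSO plus […] (300 uM stock) for 30 min at 37C. cAMP was measured by HTRF (cAMP-d2 plus anti-cAMP antibody-K) after 30 min at room temperature.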
TRPV1 PAM: human TRPV1 potentiation | TRPV1-expressing cells, Fluo-8 calcium influx, capsaicin EC20 potentiation; host cell line not named in the record; control for the full effect not named in the record | potentiation, % at 8.33 µM | 320,000 compounds, 0.02% hits; active means potentiation above 80%; inconclusive means 30% to 80%; inactive means below 30%; also: 0% is about no effect
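TRPV1-expressing cells were cultured overnight at 35.5C and loaded with Fluo-8 calcium dye for 40 to 90 min at room temperature. After a 10 s baseline, compound was added and calcium influx was read kinetically for 3 min (ex 480/em 520 nm).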
Sfp inh: inhibitors of Bacillus subtilis Sfp phosphopantetheinyl transferase | AID 1490 | 310,000 compounds, 3.5% hits | Potency, µM, for inactives: max response, negative = inhibition, usual class: inhibitors | Biochemical Sfp PPTase activity, qHTS | Q9F4F7; active = well fitted inhibition curve with a large enough effect; inconclusive = small, poorly fitted or top-dose-only effect, or another doubt; inactive = no such curve, though single readings can be large or run the other way;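 also: the enzyme is Sfp with the accession as filed and its product quenches rhodamine fluorescence; potency is read from the fitted curve at half-maximal effect; 0% = enzyme reaction without inhibitor and -100% = no enzyme wells; top concentration of the series not given in the record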
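After 15 min at room temperature with compound, 15 nM Sfp received 5 uM rhodamine-CoA plus 12.5 uM BHQ-2-ybbR (50 mM Hepes pH 7.6, 10 mM MgCl2). Rate came from the fluorescence difference over 30 min, ex 525/em 598 nm.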
ClpP mod: qHTS Assay for Activators of ClpP; ATP-dependent Clp protease proteolytic subunit (Bacillus subtilis (strain 168)), P80244; purified B. subtilis ClpP, FRET peptide cleavage, 20 min; Potency, µM (top dose mostly 57.5 µM), without a hit: top-dose activity change, negative = active; 340,000 compounds, 1.9% hits; active = well fitted falling curve with a large enough effect; inconclusive = small, poorly fitted or top-dose-only effect; inactive = no such curve, though single readings can be large or run the other way; also: potency is read from the fitted curve at half-maximal effect; the source files actives as falling curves though it sought activators and does not explain the sign; nearly all actives have a fitted effect of over 65% in size; many hits overshoot -100%
Target sequence (P80244 whole entry, looked up): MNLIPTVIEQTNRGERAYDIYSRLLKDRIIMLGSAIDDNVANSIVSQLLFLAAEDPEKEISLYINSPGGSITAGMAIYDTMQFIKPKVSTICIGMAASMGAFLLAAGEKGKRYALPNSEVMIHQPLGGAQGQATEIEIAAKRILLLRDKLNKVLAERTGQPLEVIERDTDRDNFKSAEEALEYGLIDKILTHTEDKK
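Purified B. subtilis ClpP, 10 microg/mL final in Tris/HCl pH8 with KCl, BSA, glycerol and Tween-20, cleaved an Abz/nitrotyrosine-quenched decapeptide. Fluorescence (ex 320, em 430) was read at 0 and 20 min at room temperature. Delta was normalized to 5.8 microM ADEP and DMSO/no-enzyme controls.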
The depositor's hits bear a star; ? = inconclusive; / = no result given; & = joins results of further samples; [ ] = dose if it differs, or a comment.

SMILES | Menin MLL FP FL | TRPML1 blocker | gsp antag | gsp ag | TRPV1 PAM | Sfp inh | ClpP mod
NC(=O)c1cc(N)ccc1N1CCCC1 | 9.9 | 2 | -23% | -35%[inhibitor] | -8 | -5% | 13%
CCC(C)(C)C1CCC2(CC1)NC(=O)N(CC(=O)N(C)CC(=O)Nc1ccccc1C(F)(F)F)C2=O (configuration not stated) | / | -3 | -17% | -25%[15.4 µM] | -10 | -7% | 2.0%
O=C(c1ccc([N+](=O)[O-])o1)N(Cc1nnc(-c2ccccc2Cl)o1)C1CC1 | / | -10 | 4% | 13% | -27 | / | 0.7%
CCOc1ccc(NC(=O)CN(C)C(=O)c2cc3c(s2)CCCCC3)cc1OCC | / | -4 | -4% | -7% | 14 | / | -2.4%
O=C(N/N=C/C1CCCCC1)c1ccccc1-n1cccc1 | / | 7 | 3% | 1%[15.4 µM] | 5 | / | /
Cc1cccc(CNS(=O)(=O)c2csc(C(N)=O)c2)c1 | 0.8 | 3&-2 | 7% | 9% | 17 | 18% | -0.2%&-2.5%
COc1ccc(CCNC(=O)C2CCCN(Cc3nc(-c4cccc(Cl)c4)oc3C)C2)cc1OC (configuration not stated) | 7.0 | 11 | -1% | 19% | -16 | 10% | -3.8%
O=C1Nc2ccc(Br)cc2C1(O)c1ccccc1 (configuration not stated) | -0.3 | -4 | 7% | 3% | ? | 1% | 2.5%
Cc1ccccc1OCC(=O)OCC(=O)NCc1ccco1 | / | -2 | 2% | -41%[inhibitor] | -1 | / | -6.0%
COc1ccc(SCCN2CCN(CC(C)C)CCC2=O)cc1 | 2.0&1.2 | 1&0 | 6% | / | -10 | 23%&14% | -6.6%
CCOC(=O)COn1c(=O)c(-c2ccc(OC)c(OC)c2)[n+]([O-])c2ccccc21 | 6.5 | / | / | / | 10 | ? | /
O=C(NCCCn1ccnc1)c1ccc(-c2cccc(C(F)(F)F)c2)o1 | / | 11 | 3% | 5% | / | / | -23%
CCS(=O)(=O)c1ccc2oc(Nc3ccc(C(C)(C)C)cc3)nc2c1 | -0.9 | -8 | -2% | -23%[15.4 µM] | 1 | 13% | -0.3%
CC(=O)n1c(C=Nc2ccc(Cl)cc2)c(O)c2ccccc21 | 8.7 | -11 | -3% | 10%[15.4 µM] | 0 | ? | /
Cc1cc(NC2C3CC4CC(C3)CC2C4)n2ncnc2n1 (configuration not stated) | -1.0 | -8 | -4% | -36% | 13 | 11% | 2.2%
COCCCNCCCOc1ccc(C(C)(C)c2ccccc2)cc1 | 2.7 | -3 | 13% | -2% | -4 | 56µM* | -4.7%
CSc1ccc(C2C(C#N)=C(N)N(c3ccccc3)C3=C2C(=O)CCC3)cc1 (configuration not stated) | 0.6 | -10 | -13% | 5% | 6 | -24% | -0.9%
Cn1c(=O)[nH]c(=O)c2c1nc(N1CCNCC1)n2Cc1cccc2ccccc12 | -0.3 | 0 | -15% | -52%[inhibitor] | 9 | 3% | -2.0%
CCN1CCN(C(=O)Cn2nc(C)n3c(cc4c(OC)cccc43)c2=O)CC1 | -1.1 | 8 | 3% | -28% | 1 | 24% | 4.0%
COC(=O)c1ccc(CSc2ncnc3ccccc23)o1 | 1.6 | -12 | 13% | 4% | 24 | 5% | 0.8%
CCCCNC(=O)CN1CCC2(O)CCCCC2C1c1ccccc1OC (configuration not stated) | 0.3 | 0 | -9% | 0% | -13 | 18% | 0.0%
CCCCOc1ccc(Cc2c(COCC)[nH]c(=S)[nH]c2=O)cc1 | -2.4 | -5 | -28% | 0%[15.4 µM] | 7 | 5% | /
Cc1noc(C)c1C(=O)Nc1nc2ccc(F)cc2s1 | / | 14 | -22% | 7% | 21 | / | 1.6%
N#Cc1ccsc1NC(=O)CCN1C(=O)C2CCCCC2C1=O (configuration not stated) | / | -4 | 4% | ? | / | / | /
COc1ccc(S(=O)(=O)N2CC(=O)Nc3ccccc32)cc1F | 3.9 | 11 | 5% | -46%[inhibitor] | 7 | -3% | /
COc1ccccc1NC(=O)c1nn(-c2ccccc2)ccc1=O | 1.5 | -6 | -5% | -6% | ? | 10% | 3.3%
COC(=O)CSc1snnc1-c1ccc(Cl)cc1Cl | 0.9 | 58 | -5% | -3% | 6 | -9% | 1.3%
CCCc1cc(=O)[nH]c(SCC(=O)N2CCN(S(=O)(=O)c3ccc(C)cc3)C2)n1 | 0.7 | 21 | -7% | 5% | 28 | 13% | -3.5%
Cc1cc(=O)nc2c3ccccc3n(C(C)C(=O)NCCN3CCOCC3)n12 (configuration not stated) | / | 12 | -1% | 10% | -5 | 13% | 3.4%
COC(=O)c1sc2ccccc2c1N | -0.5 | 21 | -8% | -20% | ? | 14µM* | 4.7%
Cc1cc(CNC(=O)COc2ccc(F)cc2Cl)cc(C)c1O | 4.0 | -10 | 3% | 15%[15.4 µM] | -3 | 4% | /
CCCCN1CC(COC)Oc2cccc(F)c2S1(=O)=O (configuration not stated) | / | 4 | 8% | / | / | / | -0.1%
CS(=O)(=O)N(CC(=O)Nc1ccccc1Br)Cc1ccccc1 | 1.2 | -10 | 4% | 7%[15.4 µM] | -43 | 2% | -2.4%
O=C(NC1=NCCS1)C1CCN(S(=O)(=O)c2ccccc2C(F)(F)F)CC1 | / | -9 | 5% | -93%[inhibitor] | -13 | / | -0.8%
CCC(C(=O)NC1CCCC1)N(C(=O)Cn1nnc(-c2ccc(C)o2)n1)c1ccc(OC)cc1 (configuration not stated) | 0.2 | -6 | 1% | -2% | 4 | -3% | /
CCOC(=O)N1CCN(CC(=O)Nc2ccc(C)c(Br)c2)CC1 | -0.5 | -8 | 7% | -6%[15.4 µM] | 0 | ? | -0.5%
CCOC(=O)c1ccc2nc(NC(NC(C)=O)(C(=O)OC)C(F)(F)F)sc2c1 (configuration not stated) | 1.7 | 4 | 7% | -35% | 10 | 0% | -24%
Cc1cccc(NC(=O)CC(C)(C)C)c1 | -1.1 | 3 | 18% | -1% | 1 | 12% | 0.9%
CCN(CC)C(=O)C1CCC(CNS(=O)(=O)c2cccc3nsnc23)CC1 (configuration not stated) | / | -5 | -4% | 1% | -4 | 7% | -0.2%
COC(=O)c1cc(NC(=O)C2(S(=O)(=O)c3ccc(C)cc3)CC2)cc(C(=O)OC)c1 | 4.2 | -1 | 10% | -13% | 3 | 10% | -6.9%
CN1C(C(=O)Nc2ncccn2)=C(O)c2ccccc2S1(=O)=O | -1.9 | 4 | 2% | -13%[15.4 µM] | 17 | ? | /
Cc1cc(F)ccc1NC(=O)c1ccc(NS(=O)(=O)c2cccs2)cc1 | / | 45 | / | -57%[inhibitor] | / | / | -1.3%
COc1ccccc1C(CNC(=O)C(CCSC)NS(=O)(=O)c1ccccc1F)N1CCCC1 (configuration not stated) | / | -8 | 5% | -34%[15.4 µM] | 4 | / | /
[N-]=C=C1C(=S)NC(=O)[C@H]([n+]2ccccc2)[C@H]1c1ccc(Cl)cc1 | 4.6 | 6 | 5% | 20µM* | ? | -10% | /
CCOC(=O)c1sc2nc3c(SCC(=O)O)cc(C(=O)c4ccccc4O)cn3c(=O)c2c1C | ? | 13 | -12% | ? | 4 | 1% | /
CC(=O)NC(c1ccccc1)c1nc2ccccc2[nH]1 (configuration not stated) | 5.6 | -1 | -1% | -50%[inhibitor] | -7 | 11% | -1.3%
COc1ccc(C2=C/C(=C/c3cccnc3)C(=O)O2)cc1OC | ? | 1 | 4% | -13% | 18 | -11% | /
Clc1ccc(-n2ncc3c(NCCCn4ccnc4)ncnc32)cc1 | 4.1 | -9 | 9% | 0% | 2 | 15% | -3.0%
CC1CCC(NC(=O)c2cccc(S(=O)(=O)N3CCN(C)CC3)c2)CC1 (configuration not stated) | / | 9 | 13% | -59%[inhibitor] | 1 | / | 0.5%
COc1c[nH]n(C2CCCCC2)c(=O)c1=O | -1.1 | 20 | 8% | -48%[inhibitor] | -3 | -4% | -5.2%
O=C(CN(CC1CCCO1)C(=O)CNS(=O)(=O)c1ccc(Cl)cc1)NCCc1ccccc1 (configuration not stated) | 3.0 | -1 | 9% | -6% | -3 | 19% | -2.5%
CN(CCO)C(=O)c1c(NC(=O)c2ccccc2)sc2c1CCCC2 | 1.3 | -1 | -5% | 7% | -40 | 13% | /
CCCCCCc1cc2cc(-c3nnc(-c4ccccc4)o3)c(=O)oc2cc1O | ? | 8 | -10% | 6%[15.4 µM] | -7 | -8% | -2.4%
O=C(Cn1nc(C(=O)O)c2ccccc2c1=O)Nc1ccc(Cl)c(S(=O)(=O)N2CCOCC2)c1 | / | 17 | -8% | -3%[15.4 µM] | / | / | -7.2%
CCn1c(C)c(C)c2cc(C(=O)NCCN3CCCCCC3)ccc21 | 7.4 | 9 | -7% | -26% | 2 | -25% | -17%
COc1ccc(NC(=O)Nc2nc(C)cc(C)n2)c(OC)c1 | 3.6 | -9 | -8% | 16% | -3 | 13% | -1.1%
CCOc1ccc(/C=C2\SC(=S)N(CC(=O)Nc3ccccn3)C2=O)cc1 | / | 6 | 2% | 21% | 2 | 4% | 0.2%
O=C(NCC1CCN(c2ccc(S(=O)(=O)N3CCOCC3)cc2)CC1)Nc1ccccc1F | -2.2 | 45 | -12% | 2%[15.4 µM] | -9 | 8% | /
CN1C(=O)C2(CCCCC2)C1c1ccccc1 (configuration not stated) | / | 6 | -3% | / | / | / | -0.4%
CCc1ccc2c(CN(C)Cc3ccc(OC(F)F)c(OC)c3)cc(=O)oc2c1 | -0.1 | 3 | -11% | -1% | -4 | -4% | /
CCN(c1ccccc1)S(=O)(=O)c1ccc2c(c1)N(C(C)=O)CCO2 | 0.2 | 8 | 3% | ? | ? | 9% | /
O=C(NC(=S)N1CCCCCC1)C1CC1 | 5.5 | 0 | ? | 1% | 8 | -26% | 0.9%
